RecA intein inh – Mtb RecA intein splicing inhibition | P9WHJ3 | cell-free RecA intein splicing, fluorescence | inhibition, %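 (about 9 µM by stock and volumes)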 | 290,000 tested, 0.75% active | AID 2221; in the data active = inhibition above about 30%; inconclusive = no clear call, values can overlap the other calls;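 also: 0% = vehicle wells and 100% = reference inhibitor control wells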
Target sequence (P9WHJ3 whole entry, looked up): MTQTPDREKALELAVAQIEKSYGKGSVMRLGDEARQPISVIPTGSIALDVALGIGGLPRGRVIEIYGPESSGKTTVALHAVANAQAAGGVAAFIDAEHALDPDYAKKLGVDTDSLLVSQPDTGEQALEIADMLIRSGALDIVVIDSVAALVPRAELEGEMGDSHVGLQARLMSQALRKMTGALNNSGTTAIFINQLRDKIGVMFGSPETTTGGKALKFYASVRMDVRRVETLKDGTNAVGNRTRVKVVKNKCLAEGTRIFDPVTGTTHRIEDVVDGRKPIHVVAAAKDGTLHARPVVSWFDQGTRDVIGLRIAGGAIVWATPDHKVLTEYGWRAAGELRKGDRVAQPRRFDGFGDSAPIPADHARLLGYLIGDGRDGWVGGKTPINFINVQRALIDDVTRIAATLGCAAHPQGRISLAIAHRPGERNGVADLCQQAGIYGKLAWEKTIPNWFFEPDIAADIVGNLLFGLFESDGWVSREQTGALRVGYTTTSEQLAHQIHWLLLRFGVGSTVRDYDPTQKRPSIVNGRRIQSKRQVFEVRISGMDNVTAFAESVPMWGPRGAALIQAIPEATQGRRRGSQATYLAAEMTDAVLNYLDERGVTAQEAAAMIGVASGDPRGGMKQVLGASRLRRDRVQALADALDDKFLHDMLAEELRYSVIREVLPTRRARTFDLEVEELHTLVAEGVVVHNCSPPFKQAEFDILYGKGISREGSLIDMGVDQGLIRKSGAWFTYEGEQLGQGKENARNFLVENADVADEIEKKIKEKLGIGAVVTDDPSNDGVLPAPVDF
YopH PTP inh – blocks Yersinia enterocolitica YopH tyrosine phosphatase | 140,000 tested, 0.16% active | AID 898 | fluorescence Ex485/Em525 | inhibition, %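 (about 10 µM by stock and volumes)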;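 active = inhibition of 50% or more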;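 also: controls were vehicle for no effect and minimum signal wells for full effect; inactives centre near -20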
Mtb bLac sens – beta-lactam sensitization of Mtb H37Rv. 330,000 tested, 0.27% active. inhibition, % at 25 µM. M. tuberculosis H37Rv growth with meropenem, percent inhibition; hits of this screen are not shown here;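 active = about 74% or more and at least 40 points above the plate without the antibiotic, then above 30% in a dose series; inconclusive = first-round hits that could not be retested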;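 also: growth measured after seven days incubation then overnight dye step; 0% = bacteria only wells and 100% = bacteria with antibiotic; twin plates without the antibiotic show which effects depend on it; some results filed as inactive read as strong as hits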
Mtb growth – M. tuberculosis H37Rv growth inhibitors, H37Rv strain (AID 1626) | M. tuberculosis H37Rv growth inhibition; higher % means a stronger effect | inhibition, % at 10 µM; hits with a dose series show IC50 in µM | 220,000 tested, 0.95% active;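 active = confirmed in a dose series; inconclusive = inhibition above 80% but not taken into the dose series; inactive = below 80% or under 30% at every dose of the series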;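 also: bacteria incubated seven days before Alamar blue readout; 0% = bacteria only wells and 100% = bacteria with antibiotic wells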
Arbovirus anti – antivirals against arbovirus infection | 200,000 tested, 0.37% active | inhibition, % at 10 µM | arbovirus infection cell-based antiviral screen;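 active = inhibition from about 30%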;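 also: bluetongue infection of BSR cells; cell survival read as ATP light after 72 h; 0% = infected wells without compound and 100% = uninfected wells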
Arbovirus anti repeat – also measured in Arbovirus anti; calls as there; inhibition, %; measured here: 10K subset replicate screen; many hits read low in the repeat;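 first of two repeat runs on a subset; 0% = infected and 100% = uninfected wells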
* = called active by the depositor; ? = inconclusive; nt = not tested or not shown. A portion of the library; the hit share may differ from the screen's.

SMILES | RecA intein inh | YopH PTP inh | Mtb bLac sens | Mtb growth | Arbovirus anti | others
Cc1ccc(NC(=O)CN2CCN(Cc3ccccc3)CC2)cc1 | -1.5 | nt | 2 | nt | nt
NS(=O)(=O)c1cccnc1Nc1cccc(C(F)(F)F)c1 | 0.0 | -24 | 56 | 4% | 1
COc1ccc(OCCSc2n[nH]c(N)n2)cc1 | 2.8 | 2 | 16 | 5% | -1
O=C(COc1ccc2ccccc2c1)N1CCN(c2ccccc2)CC1 | 1.3 | nt | 4 | nt | nt
COc1cc(OC)cc(C(=O)Nc2nc(CC(=O)NC(C)c3ccccc3)cs2)c1 (centres undefined) | 2.2 | nt | -3 | nt | nt
CCn1c(C)nc2cc(C(=O)N3N=C(CCOC)CC3(O)C(F)(F)F)ccc21 (centres undefined) | -1.7 | nt | 17 | 16% | nt
CCOC(=O)CC(=O)CSC1=C(C#N)C(c2ccccc2OC)CC(=O)N1 (centres undefined) | -3.4 | -34 | -4 | 0% | 4
CCCN1CNC(=S)N(CCc2ccccc2)C1 | -1.0 | -21 | -4 | -2% | 5
O=C(CSc1nc(O)c(Cc2ccccc2F)c(=O)[nH]1)N1CCCCCC1 | -0.4 | -36 | 9 | 0% | 1
COCC(=O)N(Cc1ccc(OC)cc1)Cc1nc2ccccc2c(=O)[nH]1 | -2.1 | -21 | 28 | 3% | 2
CC(C)OC(=O)CN1C(=O)C(C)(C)Oc2ccc(C(=O)NC3CC3)cc21 | 3.2 | -5 | 4 | -6% | 6
COC(=O)c1cc(S(=O)(=O)NC2CCC(C)CC2)cn1C (centres undefined) | 2.3 | nt | -1 | nt | nt
CN(CC(=O)Nc1ccccc1)CC(=O)Nc1ccccc1Cl | -0.6 | nt | 3 | nt | nt
O=C1c2ccc3c4c(ccc(c24)C(=O)N1c1cccc(O)c1)CC3 | -2.0 | nt | 3 | 0% | -8
CCc1ccc(-c2cc(C)no2)cc1S(=O)(=O)NCc1ccc(OC)c(OC)c1 | -0.6 | nt | 1 | nt | nt
O=C1/C(=C\c2ccc(O)c(O)c2)SC(=S)N1Cc1ccccc1 | 23 | nt | 10 | nt | nt
COC(=O)Cc1ccc(NC(=O)C(c2ccccc2)c2ccccc2)cc1 | 2.7 | -25 | 10 | 7% | 7
O=C(COC(=O)c1cnccn1)c1ccc(Cl)cc1 | -4.8 | nt | 1 | 1% | 15
Cc1ccc(NC(=O)c2cc(S(=O)(=O)N3CCCCC3)cs2)cc1 | 0.6 | -8 | 2 | -3% | -33
CN(C)S(=O)(=O)c1ccc(C(=O)N2CCOCC2)cc1 | 1.1 | 7 | -15 | -3% | 1
Cc1ccc(C(=O)N2NC(c3ccc(F)cc3)C3C(=O)N(c4ccc(C)cc4)C(=O)C32)cc1 (centres undefined) | 2.8 | -33 | 5 | nt | -4
O=C(CSc1nc(N2CCCCC2)nc(N2CCCCC2)n1)c1ccccc1 | 4.9 | -19 | 7 | 5% | 6
Cc1c(C(=O)CN2CCOCC2)[nH]c2ccccc12 | 3.3 | -17 | -1 | -7% | 2
CCOc1cc(N2CCOCC2)c(OCC)cc1NC(=O)c1c(-c2ccccc2Cl)noc1C | 10 | nt | 1 | 0% | 6
COc1ccccc1NC(=O)c1ccc(CN(c2cc(Cl)ccc2C)S(=O)(=O)c2ccccc2)cc1 | -1.4 | 5 | 5 | -2% | -20

6 structures out of the list, sorted by count of non-hydrogen atoms, lowest first.
SMILES | RecA intein inh | YopH PTP inh | Mtb bLac sens | Mtb growth | Arbovirus anti | others
COc1ccc(OCCSc2n[nH]c(N)n2)cc1 | 2.8 | 2 | 16 | 5% | -1
O=C1c2ccc3c4c(ccc(c24)C(=O)N1c1cccc(O)c1)CC3 | -2.0 | nt | 3 | 0% | -8
COCC(=O)N(Cc1ccc(OC)cc1)Cc1nc2ccccc2c(=O)[nH]1 | -2.1 | -21 | 28 | 3% | 2
O=C(CSc1nc(N2CCCCC2)nc(N2CCCCC2)n1)c1ccccc1 | 4.9 | -19 | 7 | 5% | 6
Cc1ccc(C(=O)N2NC(c3ccc(F)cc3)C3C(=O)N(c4ccc(C)cc4)C(=O)C32)cc1 (centres undefined) | 2.8 | -33 | 5 | nt | -4
CCOc1cc(N2CCOCC2)c(OCC)cc1NC(=O)c1c(-c2ccccc2Cl)noc1C | 10 | nt | 1 | 0% | 6

(continued)
SMILES | RecA intein inh | YopH PTP inh | Mtb bLac sens | Mtb growth | Arbovirus anti | others
COc1ccc(OCc2nnc(SCC(=O)N3C(C)CCCC3C)o2)cc1 (centres undefined) | -8.7 | nt | 3 | nt | nt
N#C/C(=C(/O)CN1CCOCC1)c1nc2ccccc2s1 | 16 | -34 | -7 | -4% | 11
Fc1ccc(C[n+]2csc3ccccc32)cc1 | 1.2 | -19 | -5 | 3% | -4
COc1ccc(NC(=O)C2CCCN2c2ccc(OC)c(OC)c2)cc1OC (centres undefined) | -5.9 | 38 | -2 | nt | 7
COCCCNC(=O)c1ccc(Cn2c(=O)c3ccccc3n(Cc3ccc(C)cc3)c2=O)cc1 | -1.1 | 9 | -7 | -6% | -2
CCCS(=O)(=O)c1c(S(=O)(=O)CCC)c2c3ccccc3ccn2c1C(N)=O | -0.8 | -36 | 0 | 2% | 5
Cc1ccc(S(=O)(=O)N2CCC(Oc3cccc(C(F)(F)F)c3)CC2)cc1 | -0.8 | nt | -2 | nt | nt
COc1cccc(-n2c(=O)c3cc(OC)c(OC)cc3n(CC(=O)Nc3cc(C)[nH]n3)c2=O)c1 | 2.2 | -10 | ? | 4% | 3
Cc1ccc2cccc(OCC(=O)Nc3ccc(N4CCOCC4)cc3)c2n1 | -3.9 | nt | 10 | 6% | 2
Cc1cc(C)c(OCCCCCNCCO)c(C)c1 | 1.2 | 2 | 3 | -3% | -25
COc1ccc(CCN2C(=O)C3C4C=CC(C3C2=O)C2C(=O)N(CCc3ccc(OC)c(OC)c3)C(=O)C42)cc1OC (centres undefined) | 1.9 | -9 | -2 | -2% | 8
CCOC(=O)C1=C(c2ccccc2)OC(N)=C(C#N)C1C(C)C (centres undefined) | 0.2 | -6 | -2 | -8% | 10
O=C(CSc1n[nH]c(-c2ccco2)n1)Nc1ccccc1Cl | -3.9 | nt | -6 | nt | nt
O=C(COc1ccc(Cl)cc1)N1CCN(c2ccc([N+](=O)[O-])c(N3CCOCC3)c2)CC1 | 2.3 | -4 | 4 | 5% | -10
O=C(Nc1nncs1)c1ccc(N2C(=O)C3C4C=CC(C4)C3C2=O)cc1 (centres undefined) | 2.2 | -47 | 4 | -5% | 4
c1ccc(CSc2nnc(-c3ccncc3)o2)cc1 | nt | 2 | -9 | -10% | -1 | Arbovirus anti repeat=3
C/C(O)=c1/ccc2cccc3nc(C)nc1c23 | -449 | 4 | 5 | -6% | -3
CSC1=C(C#N)C(c2cccc(Br)c2)CC(=O)N1 (centres undefined) | -0.9 | -6 | -12 | -11% | -5
COCC1CCN(Cc2nc(-c3ccc4c(c3)OCO4)no2)C1 (centres undefined) | 2.2 | nt | 5 | -6% | -1
Cc1cccc(Cc2nnc(NC(=O)c3cccc(S(=O)(=O)N4CCOCC4)c3)s2)c1 | -1.3 | -44 | 19 | 7% | -2
Cn1ccc(C(=O)NC(=S)N2CCSCC2)n1 | -1.8 | nt | -4 | -7% | nt
O=C(NCCc1cn2ccccc2n1)c1cc(COc2ccc3ncccc3c2)on1 | 1.4 | nt | -7 | 3% | -4
CN(c1ccccc1)S(=O)(=O)c1ccc(C(=O)Nc2nnc(-c3ccco3)o2)cc1 | 5.4 | nt | 92 | ? | -19
O=C(c1ccc(Cl)c([N+](=O)[O-])c1)N(Cc1ccc(F)cc1)C1CCS(=O)(=O)C1 (centres undefined) | 0.8 | nt | -7 | 0% | nt
C#CCOCCOCCOCCNc1nc(N2CCN(C(=O)[C@H]([C@@H](C)CC)n3cc(CCCN=C(N)N)nn3)CC2)nc(N2CCN(C(=O)[C@H](CCCCN)n3cc(CCCC)nn3)CC2)n1 | 1.4 | -4 | 62 | -1% | -2

Next part.
SMILES | RecA intein inh | YopH PTP inh | Mtb bLac sens | Mtb growth | Arbovirus anti | others
COc1ccc(C(CNC(=O)COc2ccc(Br)cc2F)N2CCCC2)cc1 (centres undefined) | -0.1 | nt | -4 | 8% | -14
CC1(C)C(c2cccs2)=[N+]([O-])C2(CCCCC/C2=N\NC(N)=S)N1O (centres undefined) | 1.0 | -2 | 44 | 2% | 2
COc1ccc(C2C(C(=O)c3cccs3)=C(O)C(=O)N2c2nncs2)cc1 (centres undefined) | 6.2 | -26 | -3 | -5% | 3 | Arbovirus anti repeat=7
Cc1ccc2nc(-c3ccccn3)c(Nc3ccccc3C)n2c1 | 14 | nt | 99 | 1.5µM* | -27
CC(C)(C)C(=O)N(CCN(C(=O)C(C)(C)C)c1ccccc1)c1ccccc1 | -0.9 | -12 | -3 | -4% | 11
CC(C)OCCCNC(=O)C(NS(=O)(=O)c1ccc2c(c1)c(=O)n(C)c(=O)n2C)c1ccccc1 (centres undefined) | 0.2 | nt | -2 | -12% | -6
O=C(NCc1ccc(Cl)cc1)c1ccc(Br)o1 | 4.0 | -2 | 36 | 15% | -1
CCc1c(C)nc(SCC(=O)N2CC(C)OC(C)C2)[nH]c1=O (centres undefined) | -2.9 | nt | -6 | nt | nt
O=C1C(=C(c2ccccc2)c2ccccc2)Nc2ccccc21 | 5.2 | 1 | 40 | 4% | -17
CSc1nsc(SC)c1NC(=O)OCc1ccccc1 | 0.6 | -6 | nt | -7% | -3
O=C(COC(=O)Cc1ccccc1F)Nc1ccc2[nH]c(=O)[nH]c2c1 | -3.2 | nt | -8 | nt | nt
Cn1c2c(c(=O)n(C)c1=O)C(CC(=O)Nc1ccc(F)cc1)C(=O)N2 (centres undefined) | 0.5 | nt | -6 | 0% | 2
COC(=O)c1ccc(-c2noc(CN3CCCCC3c3nccn3C)n2)cc1 (centres undefined) | 0.4 | nt | -12 | 8% | 4
CCC1c2ccc(C)n2CCN1C(=O)Nc1ccc(F)cc1 (centres undefined) | -5.8 | -22 | -12 | -1% | 6
CN(C)C1(CNC(=O)c2ccc(Cl)c(S(=O)(=O)NCc3ccco3)c2)CCCCC1 | -0.5 | -17 | 4 | -2% | 9
CCOC(=O)c1ccc(NC(=O)c2nc[nH]c2C(=O)NCCCCCNC(=O)OC(C)(C)C)cc1 | -3.8 | nt | 0 | 14% | nt
O=C(COc1ccccc1F)NC1CCN(Cc2ccccc2)CC1 | 0.6 | -3 | -7 | 3% | 2
COC(=O)NCc1ccc(Cl)c(Cl)c1 | 1.9 | -27 | 7 | -11% | -20 | Arbovirus anti repeat=-15
COc1ccc(NC(=O)c2ccccc2NS(C)(=O)=O)cc1OC | -0.3 | -22 | -3 | -2% | 9
Cc1cc(C)cc(N(CC(=O)Nc2ccc(Br)cc2)S(=O)(=O)c2c(C)[nH]c(=O)[nH]c2=O)c1 | -13 | nt | -2 | nt | nt
CSc1ccc(S(=O)(=O)N2CCC(C(=O)N3CCOCC3)CC2)cc1 | -1.7 | nt | 1 | nt | nt
O=C(Cc1ccccc1)NC1(Cc2ccc(O)cc2)CCCCC1 | 7.7 | nt | -3 | -8% | -6
CSc1nc2c(cnn2-c2ccc(C)c(C)c2)c(=O)[nH]1 | 7.4 | -19 | 11 | 3% | -2 | Arbovirus anti repeat=-11
c1ccc2c(c1)[nH]c1c(NCC3CCCO3)ncnc12 (centres undefined) | -2.7 | -21 | -9 | 6% | 12
Cc1nn(-c2ccccn2)c2c1-c1nc(N)ncc1CC2 | -0.4 | -24 | 2 | -11% | 21

Remaining list, next part:
SMILES | RecA intein inh | YopH PTP inh | Mtb bLac sens | Mtb growth | Arbovirus anti | others
CCC1=C(C(=O)OC)C(c2cc(OC)ccc2OC)C(C#N)=C(N)O1 (centres undefined) | -1.4 | -38 | 9 | -10% | 1
O=C(Nc1cn(-c2ccccc2)nc1-c1cccs1)c1ccco1 | 2.7 | -23 | 60 | 12% | 5
COc1ccc(-n2c(=S)[nH]c3c(oc4ccccc43)c2=O)cc1 | 2.7 | -14 | -1 | 6% | 2
CCOC(=O)Nc1nnc(-c2ccc(OC)cc2)s1 | -2.3 | -7 | 4 | -8% | 10
CCN(CC)c1ccc(/C=C2\C(=O)NC(=O)N(CC3CCCO3)C2=O)cc1 (centres undefined) | 0.3 | -12 | 0 | 4% | 5
CCN(CC)CCNCC(=O)Nc1ccc(Oc2ccccc2)cc1 | -4.6 | nt | -3 | nt | nt
CN(C)CCCNC(=O)CC(c1ccccc1)c1ccccc1O (centres undefined) | nt | 30 | -4 | -4% | 4
COc1cc2c(cc1NCc1ccccn1)oc1ccccc12 | 2.0 | -10 | 99 | 3.1µM* | 5
COc1ccc(NC(=O)Nc2ccccc2)cc1S(=O)(=O)N1CCCCC1 | -0.6 | nt | -1 | 3% | -8
Cc1nnc(SCc2ccc(Cl)cc2)n1CC1CCCO1 (centres undefined) | -0.3 | -22 | -2 | -9% | -2
COc1ccc(C(=O)C2CCCN(Cc3cnc(N4CCOCC4)s3)C2)cc1F (centres undefined) | 1.2 | nt | -12 | 0% | nt

Source: PubChem (several laboratories)
